Assay outcomes (PubChem)
Lassa entry inh = blocks Lassa virus binding to or entry into cells. 1.2% of 300,000 active. Lassa virus pseudotype entry inhibition, cell reporter; control for the full effect not named in the record. Potency, µM (doses to about 37.9 µM), for inactives: at the top dose activity change, negative = inhibition, most hits filed as inhibitors; active means well fitted inhibition curve with a large enough effect; inconclusive means small, poorly fitted or top-dose-only effect, or effect the other way; inactive means flat fitted curve, though single readings scatter; tested in HEK293 cells; further: on the % scale 0 is the no-effect control and ±100 the full control effect; nearly all actives have a fitted effect of over 50% in size; luciferase read-out
RE007 growth inh = less growth of the S. pombe RE007 Vpr strain | AID 651644 | 0.21% of 360,000 active | Potency, µM (series often up to 92.2 µM), for the others: at the highest dose activity change, negative = less growth | S. pombe RE007 Vpr strain, BacTiter-Glo ATP luminescence, 24 h; control for the full effect not named in the record; active = well fitted falling curve with a large enough effect; inconclusive = small, poorly fitted or top-dose-only effect; inactive = no such curve, though single readings can be large or run the other way;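 further: on the % scale 0 is the no-effect control and ±100 the full control effect; nearly all actives have a fitted effect of over 50% in size; the assay follows cell death caused by Vpr and the record does not say whether a fall means rescue or toxicity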
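Fission yeast strain RE007, carrying one chromosomally integrated HIV-1 vpr copy, was seeded at OD 0.01 in PMG+AL medium with 23 nL pinned compound. After 24 h at 30 °C and 99% humidity, viability was read by BacTiter-Glo luminescence.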
StopGo reporter = lowers the luciferase signal of an FMDV 2A StopGo reporter. 1.2% of 410,000 active. AID 1159524. human cells with a luciferase reporter of 2A StopGo recoding; control for the full effect not named in the record. Potency, µM (highest dose often 57.9 µM), for inactives: at the highest dose signal change, negative = less light; active = well fitted falling curve with a large enough effect; inconclusive = small, poorly fitted or top-dose-only effect; inactive = no such curve, though single readings can be large or run the other way; tested in HEK293T cells; further: on the % scale 0 is the no-effect control and ±100 the full control effect; nearly all actives have a fitted effect of over 45% in size; luciferase light after 4 h
Marburg entry inh = Marburg virus entry inhibition; Marburg virus pseudotyped entry inhibition, cell reporter; control for the full effect not named in the record; about a third of the inactives were read at about 46 µM; Potency, µM (highest dose often 37.8 µM), inactives show top-dose activity change, negative = inhibition, actives largely listed as inhibitors; 1.8% of 300,000 active; active = well fitted inhibition curve with a large enough effect; inconclusive = small, poorly fitted or top-dose-only effect, or effect the other way; inactive = flat fitted curve, though single readings scatter; tested in HEK293 cells; about a fifth of its hits are not listed in these tables; further: on the % scale 0 is the no-effect control and ±100 the full control effect; luciferase read-out
NS1 inh = influenza NS1 inhibition; S. cerevisiae slowed by influenza A NS1, growth recovery by OD600; Potency, µM (series often up to 46.1 µM), for the others: top-dose activity, positive = more growth; 0.4% of 270,000 active; active means well fitted rising curve with a large enough effect; inconclusive means small, poorly fitted or top-dose-only effect; inactive means no such curve, though single readings can be large or run the other way; further: nearly all actives have a fitted effect of over 50% in size
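Recovery from NS1-induced slow growth read by OD600 in budding yeast switched to galactose assay medium (pH 6.0, -URA) at 1:100 dilution. Compound 23 nl per well; the matching strain lacking NS1 serves as control.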
Cruzain Triton = inhibitors of Trypanosoma cruzi cruzain with detergent; P25779; purified cruzain, Z-FR-AMC fluorescence, 0.01% Triton; AID 1478; 0.43% of 200,000 active; Potency, µM, for inactives: max response, negative = inhibition, usual class: inhibitors;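 further: plate controls were neutral wells for no effect and buffer without enzyme for full effect; nearly all actives have a fitted effect of over 40% in size; top concentration of the series not given in the record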
Target sequence (P25779 123-467 limits assumed): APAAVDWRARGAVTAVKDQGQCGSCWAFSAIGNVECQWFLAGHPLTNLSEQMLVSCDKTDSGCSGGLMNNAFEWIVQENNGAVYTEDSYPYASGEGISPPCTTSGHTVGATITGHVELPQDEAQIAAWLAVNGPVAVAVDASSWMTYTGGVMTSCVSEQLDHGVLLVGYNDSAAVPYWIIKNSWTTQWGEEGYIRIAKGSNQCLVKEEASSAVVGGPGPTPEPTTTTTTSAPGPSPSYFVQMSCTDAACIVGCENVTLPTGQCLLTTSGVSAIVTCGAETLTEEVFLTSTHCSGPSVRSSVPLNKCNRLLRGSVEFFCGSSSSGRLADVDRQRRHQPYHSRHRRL
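Purified cruzain (1.5 nM final) was preincubated with compounds for 15 min at room temperature in 100 mM sodium acetate pH 5.5, 5 mM DTT, 0.01% Triton X-100. Reaction started with 2 uM Z-FR-AMC; AMC fluorescence change over 60 s gave activity.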
SARS PLP yeast = SARS-CoV PLP inhibition in yeast. Potency, µM (doses to about 32.9 µM), for inactives: top-dose activity, positive = growth rescue. 0.19% of 330,000 active. S. cerevisiae expressing SARS-CoV PLpro, growth rescue; control for the full effect not named in the record; active means well fitted rising curve with a large enough effect; inconclusive means small, poorly fitted or top-dose-only effect; inactive means no such curve, though single readings can be large or run the other way; further: 0% is about no effect; nearly all actives have a fitted effect of over 55% in size; growth read by luminescence after 48 h
Cruzain inh noDet = cruzain (T. cruzi) inhibition without detergent; P25779; purified cruzain, Z-FR-AMC fluorescence, no detergent; Potency, µM, without a hit: max response, negative = inhibition, usual class: inhibitors; 2.3% of 200,000 active; AID 1476;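 further: plate controls were enzyme without inhibitor for no effect and buffer without enzyme for full effect; nearly all actives have a fitted effect of over 40% in size; top concentration of the series not given in the record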
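Purified cruzain at 1.5 nM, pre-incubated 15 min with compound at room temperature in 100 mM sodium acetate pH 5.5, 5 mM DTT, 0.00005% Triton X-100. Reaction started with 2 uM Z-FR-AMC; AMC fluorescence increase over 60 s gives rate.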
Active calls of the source: *; ? = inconclusive; / = no result given; & = joins results of further samples; [ ] = another dose, or the depositor's remark. Unless noted, the call rests on the fitted dose curve; in most records, active means well fitted curve in the direction sought with a large enough effect; inconclusive means small, poorly fitted or top-dose-only effect, or another doubt; inactive means no such curve, though single readings can be large; an effect the other way counts as inactive or inconclusive. Potency means the concentration at half of the fitted maximal effect.

SMILES	Lassa entry inh	RE007 growth inh	StopGo reporter	Marburg entry inh	NS1 inh	Cruzain Triton	SARS PLP yeast	Cruzain inh noDet
COc1ccccc1CC(NC(C)=O)C(=O)NC1CCN(c2nnnn2-c2ccccc2)CC1 (centres undefined)	-2%	6%	-21%	0%	-9%	-3.9%	-7%	?
CN(C)c1ccc(NC(=O)CN2CCC(NC(=O)C3CCCCC3)CC2)cc1	40%	13%	-13%	3%[46.1 µM]	13%	/	12%	/
CCCCNC(=O)CSc1nc2cc3c(cc2c(=O)n1CCCC(=O)NCc1ccc2c(c1)OCO2)OCO3	0%[46.1 µM]	/	-2%	/	/	-0.1%	/	6%
Cc1ccc(O)c(C2=NOC(O)(C(F)(F)C(F)F)C2)c1 (centres undefined)	?	-9%	11%	15%	-18%	-2.5%	-15%	1%
OCCOc1nnnn1-c1ccccc1	-10%	-2%	-30%	23%	-3%	5.2%	8%	3%
Cc1[nH]n(-c2ccccc2)c(=O)c1C(c1ccccc1[N+](=O)[O-])C(C#N)C#N (centres undefined)	/	-11%	?	/	4%	/	-2%	/
Cc1ccc(C(=O)COC(=O)CCC(=O)Nc2ccccc2Cl)cc1[N+](=O)[O-]	4%	-1%	-24%	-19%	-2%	-3.9%	-3%	-5%
CC(NC(=O)c1ccc(NC(=O)c2nsc3ccccc23)cc1)c1ccccc1 (centres undefined)	14%[46.1 µM]	/	-40%	/	/	0.8%	/	-7%
O=C(CSc1nccn1C1CCCC1)Nc1ccc(C(F)(F)F)cc1	?	/	-24%	/	/	-4.8%	/	22%
COc1ccc(NC(=O)CN(C)C(=O)CNC(=O)c2ccc(C)s2)cc1	8%	-8%	21%	?	/	/	3%	/
COc1ccc(-c2nc3ccc(C)cc3c(=O)o2)cc1OC	24%	-3%	33%[activator]	-5%	4%	/	-5%	/
CC(C)NC(=O)c1ccc(N2CCOCC2)nc1	-20%	5%	15%	0%[46.1 µM]	-7%	-2.2%	-1%	-3%
Cc1nn(C(=O)c2cccs2)c(N)c1-c1ccccc1	4%	-7%	40%[activator]	?	-52%	-4.8%	-48%	6%
COc1ccccc1S(=O)(=O)Cc1ccc(C(=O)NCCN2CCCC2)o1	15%	-4%	-1%	3%	3%	-1.9%	0%	-11%
O=C(NCCC1=CCCCC1)C1CCN(C(=O)N2CCOc3ccccc32)CC1	4%[46.1 µM]	/	-15%	/	/	-2.8%	/	6%
COc1ccccc1-c1cc(C(=O)NCc2cccs2)no1	-2%	9%	36%[activator]	2%	-15%	-1.7%	0%	7%
CCOC(=O)c1cnc(SCC(=O)Nc2sc(C)c(C)c2C#N)nc1N	?	4%	-8%	?	-1%	5.4%	0%	9%
CC(CCN1CCN(CCO)CC1)c1ccccc1 (centres undefined)	/	-14%	9%	/	10%	/	4%	/
CC(C)Oc1ccc(CNC(=O)CCCN2C(=O)CCn3nc(-c4cccn4C)cc32)cc1	-21%[46.1 µM]	/	-19%	/	/	-2.7%	/	?
NC(=O)COC(=O)c1ccc2c(c1)S(=O)(=O)N=C1CCCCCN12	1%	1%	11%	7%	5%	-1.8%	-3%	10%
O=C(O)C1CCN(S(=O)(=O)Cc2ccccc2)CC1	/	-7%	-13%	/	4%	/	0%	/
Cc1ccc2nc(CSc3nnc(NC(=O)c4ccc(C(C)(C)C)cc4)s3)cc(=O)n2c1	11%[46.1 µM]	/	9%	/	/	4.5%	/	-1%
O=c1c2ccccc2nc(/C=C/c2ccccc2)n1-c1ccc(O)cc1	?	-13%	?	?	-3%	/	0%	/
CC(OC(=O)c1nn(C)c(=O)c2ccccc12)C(=O)Nc1ccc(S(N)(=O)=O)cc1 (centres undefined)	12%	-21%	-21%	10%	/	/	-25%	/
O=C(CNC(=O)c1ccccc1F)OCC(=O)c1c[nH]c2ccccc12	-7%	-13%	0%	12%	/	/	-5%	/

Going on with the list.
SMILES	Lassa entry inh	RE007 growth inh	StopGo reporter	Marburg entry inh	NS1 inh	Cruzain Triton	SARS PLP yeast	Cruzain inh noDet
CN1CCN(c2ccc([N+](=O)[O-])cc2C(=O)Nc2ccccc2)CC1	10%	10%	4%	2%[46.1 µM]	8%	/	-2%	/
Cc1cc(C)c(C(=O)N2CCCC(CNC(=O)C3(c4ccc(Cl)cc4)CC3)C2)c(=O)[nH]1 (centres undefined)	/	8%	-15%	/	1%	/	0%	/
CCN(CC)CCN(CC(=O)Nc1c(C)cc(C)cc1C)C(=O)c1ccccc1	/	8%	-12%	/	6%	/	-2%	/
CC(/C=C/c1ccccc1)=N\Nc1nc(-c2ccccc2)cs1	5%	2%	6%	-7%	22%	0.4%	-3%	25µM*
COc1ccccc1CCN1CCCC(CN(C)C(=O)c2ccco2)C1 (centres undefined)	/	-6%	7%	/	6%	/	-4%	/
O=C(CCN1C(=O)/C(=C/c2ccc(Cl)cc2)SC1=S)Nc1ccc(C(=O)O)cc1	5%	14%	21%	6%	-1%	/	-1%	/
Cc1oc2cc3oc(=O)c(CCC(=O)N4C[C@H]5C[C@@H](C4)c4cccc(=O)n4C5)c(C)c3cc2c1C	/	-8%	-11%	/	-4%	/	1%	/
O=C(O)c1ccc(CS(=O)(=O)c2c(Cl)cccc2Cl)o1	/	3%	-16%	/	3%	/	11%	/
CCOc1ccc(N(CC(=O)NC2CCCCC2)S(=O)(=O)c2ccc(C)cc2)cc1	-15%	-1%	19%	-1%[46.1 µM]	15%	/	-1%	/
CCN(CC)CCOC(=O)c1ccc(NC(=O)CCCN2C(=O)/C(=C/c3cccs3)SC2=S)cc1	?	-3%	-13%	?	10%	/	-3%	/
CC(=O)Nc1c(C)ccc([N+](=O)[O-])c1C	-12%[46.1 µM]	2%	-8%	7%[46.1 µM]	/	/	/	/
COc1ccc(C(C)(C)C)cc1NC(=O)c1cccc(S(=O)(=O)N2CCN(C(C)=O)CC2)c1	-6%	13%	-25%	-12%[46.1 µM]	11%	/	3%	/
COc1ccc(-c2cc(=O)oc3c(C)c(OC(C)C(=O)N4C[C@H]5C[C@@H](C4)c4cccc(=O)n4C5)ccc23)cc1 (some centres undefined)	/	-16%	-25%	/	-7%	/	-3%	/
O=C1NC(c2cc(Cl)cc([N+](=O)[O-])c2O)Nc2ccccc21 (centres undefined)	/	3%	-20%	/	1%	/	-1%	/
CCCc1nc2c(ccc3ccccc32)cc1CC	/	5%	-12%	/	6%	/	0%	/
COC(=O)c1cn(C(=O)c2cccc(Br)c2)c2ccccc12	/	-5%	-15%	/	-4%	/	-1%	/
O=C(COc1ccccc1Cl)Nc1nc(-c2cccs2)cs1	-7%	-9%	-3%	-3%	-55%	0.2%	-36%	?
O=C(Nc1nnc(SCc2ccccc2Cl)s1)C1COc2ccccc2O1 (centres undefined)	-8%	1%	-11%	-3%	-63%	-6.6%	-16%	?
O=C(CSc1ccc(-c2ccccc2)nn1)N1CCCCC1	/	3%	53%[activator]	-4%[46.1 µM]	/	/	-6%	/
CC(C)Nc1nnc(SCC(=O)c2c(N)n(Cc3ccccc3)c(=O)n(C)c2=O)s1	2%	4%	0%	5%[46.1 µM]	19%	1.7%	3%	2%
COc1ccc(OC)c(NC(=O)c2ccc(-c3csc(C)n3)cc2)c1	-10%	-19%	32%[activator]	0%	-75%	/	-9%	/
COCCNC(=O)c1c[nH]c2ccc(OC)cc2c1=O	-14%	?	0%	-6%	-6%	-0.5%	1%	-9%
CCOC(=O)c1ccc(-n2c(CN3CCOCC3)nc3ccc([N+](=O)[O-])cc3c2=O)cc1	/	5%	0%	/	-3%	/	0%	/
CC1(C)C2CCC(C2)C1(C)NC(=O)CN1CCOCC1 (centres undefined)	-5%	16%	-4%	-10%[46.1 µM]	-2%	2.2%	13%	6%
Cc1[nH]n(-c2ccccc2)c(=O)c1CCOC(=O)c1ccc(C(F)(F)F)cc1	-12%	-9%	0%	-20%	19%	-5.2%	-15%	14%

Next part:
SMILES	Lassa entry inh	RE007 growth inh	StopGo reporter	Marburg entry inh	NS1 inh	Cruzain Triton	SARS PLP yeast	Cruzain inh noDet
Cc1ccc(-n2ncc3c2CC(C)(C)CC3NC(=O)CCN2CCCO2)cc1 (centres undefined)	/	5%	-13%	/	-5%	/	-3%	/
Oc1ccc2ccccc2c1CN1CCOCC1	?	-27%	-14%	-1%[46.1 µM]	8%	/	1%	/
CCc1cnc2c(c1SCC(=O)NCc1ccc(F)cc1)c(=O)n(C)c(=O)n2C	15%[46.1 µM]	/	-3%	/	/	-2.1%	/	-6%
CC(C)CNC(=O)NC(=O)COC(=O)Cn1cnc2ccccc2c1=O	28%	1%	1%	-2%	/	/	-1%	/
NS(=O)(=O)c1ccc(CNC(=O)c2cccc(Oc3ccccc3)c2)cc1	-2%	11%	-21%	-5%[46.1 µM]	?	/	1%	/
COC(=O)CN1C(=S)N(c2ccc(OC)cc2)C(=O)/C1=C/c1ccc(N2CCOCC2)cc1	/	11%	-18%	/	0%	/	-1%	/
COc1ccc(CCNC(=O)C2CCN(S(=O)(=O)c3cccc4nsnc34)CC2)cc1OC	0%	0%	-17%	-1%&0%	-14%	4.9%	0%	9%
CSCCC(NC(=O)c1ccccc1Cl)C(=O)Nc1ccc(C)c(S(=O)(=O)N2CCOCC2)c1 (centres undefined)	-10%	-16%	14%	13%	/	/	6%	/
CCC1CC2CC(NC(C)=O)C1C2 (centres undefined)	5%	-1%	-14%	8%[46.1 µM]	8%	6.3%	0%	1%
CCC1(C)NC(=O)N(CC(=O)N2N=C(c3ccccc3)CC2c2ccc(OC)cc2)C1=O (centres undefined)	-13%	0%	-16%	?	-2%	-8.8%	19%	?
Cc1ccc(Cl)cc1-n1ncc2c(Nc3cccc(C)c3C)ncnc21	?	/	?	/	/	-8.6%	/	6%
O=C(CSc1nc2ccccc2c(=O)n1-c1ccccc1F)NC1CC1	-14%[46.1 µM]	6%	-8%	1%[46.1 µM]	/	/	2%	/
CC(N=C1NS(=O)(=O)c2ccccc21)c1ccccc1 (centres undefined)	0%	-7%	-10%	-24%	-1%	1.1%	3%	4%
Cc1cc(N)n(-c2ccc(S(N)(=O)=O)cc2[N+](=O)[O-])n1	-2%	-3%	0%	-1%[46.1 µM]	14%	/	-1%	/
O=C1CCCC2=C1C(c1ccc(O)c(Br)c1)C1=C(CCCC1=O)N2c1ccccc1	?	3%	-10%	?	/	/	0%	/

Outcome played no part in choosing rows; 4.5% or so of the library scored in one or more.
